Screening data: PubChem BioAssay, National Center for Advancing Translational Sciences (NCATS)
VACV Venus inh – vaccinia inhibition (Venus reporter) | Vaccinia virus Venus reporter expression, fluorescence | Potency, µM (highest dose often 36.5 µM), inactives show at the highest dose activity change, negative = inhibition, actives largely listed as inhibitors | hit rate 0.46% among 330,000; active means well fitted inhibition curve with a large enough effect; inconclusive means small, poorly fitted or top-dose-only effect; inactive means no such curve, though single readings can be large or run the other way; tested in A549 cells; further: nearly all actives have a fitted effect of over 30% in size; inactives centre near -10
Vaccinia mCherry – inhibitors of vaccinia virus infection (mCherry reporter signal); Potency, µM (doses to about 36.5 µM), for inactives: top-dose activity change, negative = inhibition, usual class: inhibitors; hit rate 0.63% among 310,000; Vaccinia virus mCherry reporter infection, fluorescence; about a quarter of the inactives have no number; active = well fitted inhibition curve with a large enough effect; inconclusive = small, poorly fitted or top-dose-only effect; inactive = no such curve, though single readings can be large or run the other way; tested in A549 cells; further: nearly all actives have a fitted effect of over 35% in size; inactives centre near -10
Active calls of the source: *; i = inactive; ? = inconclusive; nt = no result given; & = joins results of further samples; [ ] = remark or other dose. On the % scale 0 is the no-effect control and ±100 the full control effect; potency means the concentration at half of the fitted maximal effect.

SMILES | VACV Venus inh | Vaccinia mCherry
COc1ccc(CN(C2CCCC2)S(=O)(=O)c2ccc(-n3cnnn3)c(OC)c2)cc1OC | -20.9% | -8.9%
CC(OC(=O)CNC(=O)C1CCCCC1)C(=O)NCc1ccccc1 (stereo not drawn) | -3.0% | -4.3%
COc1ccc(C2=NN(C(=O)CSc3nc4ccccc4s3)C(c3ccc(F)cc3)C2)cc1 (stereo not drawn) | -10.6% | -24.4%
CCCC(C)C(=O)Nc1nc(C)c(-c2csc(Nc3ccccc3OC)n2)s1 (stereo not drawn) | -10.6% | ?
Cc1csc(NC(=O)C(C)Oc2ccc(Br)cc2)n1 (stereo not drawn) | -5.1% | -10.4%
CSCC[C@H](NC(=O)c1ccc2c(c1)OCO2)c1nnc2ccccn12 | -10.8% | i
COc1cc(-c2nc3ncccn3c2Nc2ccc(C)cc2C)ccc1O | -12.8% | -22.4%
O=[N+]([O-])c1ccc(C(S(=O)(=O)Cc2ccccc2)S(=O)(=O)Cc2ccccc2)cc1 | -22.8% | -4.0%
COc1ccc(Cc2nc3c4cnn(-c5ccccc5F)c4ncn3n2)cc1 | -3.0% | -9.2%
CS(=O)(=O)c1cccc(C(=O)NCc2ccc(F)cc2)c1 | -3.7% | nt
COC(=O)Nc1ccc(S(=O)(=O)NNC(=O)c2c(O)c3ccccc3n(C)c2=O)cc1 | 6.5%[7.34 µM] | i[7.34 µM]
CCN1CCN(c2oc(/C=C/c3cc(OC)c(OC)c(OC)c3)nc2C#N)CC1 | -18.2% | -22.8%
CN1CCN(c2ccc([N+](=O)[O-])cc2NC(=O)c2cccs2)CC1 | -19.8% | i
CCC(=O)NC(=S)Nc1ccc(NC(=O)c2cccc([N+](=O)[O-])c2C)cc1 | -6.8% | -19.9%
O=C(COc1ccccc1Br)NCCc1nc2ccccc2[nH]1 | -12.7% | -24.2%
Cn1c(-c2ccc(C(F)(F)F)cc2)cc2onc(-c3ccccc3)c2c1=O | -6.4% | 8.7%
Cc1ccc(CNc2ccc(O)cc2)cc1 | 1.5% | -5.2%
CS(=O)(=O)c1cnc(-c2ccccc2)nc1Oc1ccc(Cl)cc1 | -18.0% | i[1.46 µM]
CC1CCCCN1C(=O)COC(=O)Cc1c[nH]c2ccccc12 (stereo not drawn) | -7.9% | -2.5%
O=C(NC(c1ccccc1)c1ccc2ccccc2n1)C1CCN(Cc2ccc(Oc3ccccc3)cc2)CC1 (stereo not drawn) | ? | ?
COc1ccc(NC(=O)C2(c3ccc(NC(=O)c4ccc(OC)cc4)cc3)CCCC2)cc1 | -11.9% | i
COc1ccc2nc(-n3c(O)c(C4=c5ccccc5=NC4=O)[nH]c3=S)sc2c1 | -10.4% | -18.5%
COC(=O)c1sccc1Oc1ccc(F)cc1[N+](=O)[O-] | -22.0% | nt
O=C(CC1NCCc2ccccc21)Nc1ccccc1 (stereo not drawn) | 1.5% | 2.9%
N#Cc1ccc(/C=C2\C=Cc3ccccc32)cc1 | -13.4% | 20.1%
Cn1cncc1C#Cc1ccc2cc(CCO)oc(=O)c2c1 | -11.1% | -5.6%
O=C(Cn1c(=O)oc2cc(S(=O)(=O)NCc3ccccc3)ccc21)NCc1ccc(Cl)cc1 | -11.0% | -13.1%
NC(=O)c1cccc(Nc2nc(C(N)CCc3ccccc3)cs2)n1 (stereo not drawn) | -14.0% | -10.5%
CCOc1ccc(N2CC(NC(=O)c3cc4ccccc4o3)CC2=O)cc1 (stereo not drawn) | 5.6% | -3.4%
Cc1ccc(C(=O)Oc2coc(CSc3nnc(NC(=O)C4CC4)s3)cc2=O)cc1 | -11.9% | i
COC(=O)C1=NNC(C(=O)OC)C1c1ccccc1 (stereo not drawn) | -0.1% | i
C/C(CC(=O)Nc1cc(Cl)ccc1Cl)=N\NC(=O)COc1cccc(C)c1 | -12.1% | -20.1%
COc1ccc(C(c2nnnn2CC2CCCO2)N2CCC(C(N)=O)CC2)cc1 (stereo not drawn) | 1.3% | -10.2%
CCOC(=O)c1[nH]c(C)c(CCC(=O)NCc2ccc(OC(C)C)cc2)c1C | -15.2% | -11.5%
Cc1ccc(C2=CC(c3ccccc3C)n3c(nc4ccccc43)N2)cc1 (stereo not drawn) | 23.3% | -9.1%
Cc1ccc(CNC(=O)C2CCCCN2S(=O)(=O)c2ccc(F)cc2)cc1 (stereo not drawn) | -7.0% | -10.6%
CCC(C)N(C(=O)c1csnn1)C(C(=O)NCc1ccc(F)cc1)c1ccccc1 (stereo not drawn) | -0.9% | -1.6%
CCOc1ccc(NC(=O)CC2Nc3cccc4cccc(c34)NC2=O)cc1 (stereo not drawn) | -9.4% | -17.7%
CS(=O)(=O)N1CCCC(C(=O)c2cccc(Cl)c2)C1 (stereo not drawn) | -3.5% | -2.2%
Cc1ccccc1C(=O)Nc1nncs1 | -8.2% | -14.2%
CC(CCn1cccn1)NC(=O)c1cc(COc2ccc(F)cc2Cl)on1 (stereo not drawn) | -20.1% | -18.6%
O=C(O)CC1(CC(=O)Nc2ccc(F)c(Cl)c2)CCCCC1 | -11.9%[7.34 µM] | i[7.34 µM]
COC(=O)C(Cc1ccccc1)NS(=O)(=O)c1ccc(F)cc1Br (stereo not drawn) | 1.9% | -24.2%
N/C(=N\OC(=O)Oc1ccccc1)c1ccc(Cl)cc1 | -10.4% | -18.0%
Cc1ccc(Oc2cnn(-c3ccccc3)c(=O)c2Br)cc1 | ? | ?
Cc1cccc(NC(=O)c2nc[nH]c2C(=O)N[C@@H](CC(C)C)C(=O)OC(C)(C)C)c1 | ? | ?
COc1ccc(OCCn2c(=O)sc3ccccc32)cc1 | -11.4% | -16.8%
Cc1cccc(N2CCN(CCCNC(=O)c3ccc(NC(=O)C4=CSCCO4)cc3)CC2C)c1 (stereo not drawn) | -23.6% | i

Some of these compounds in order of length of the SMILES, lowest first.
SMILES | VACV Venus inh | Vaccinia mCherry
Cc1ccccc1C(=O)Nc1nncs1 | -8.2% | -14.2%
CS(=O)(=O)N1CCCC(C(=O)c2cccc(Cl)c2)C1 (stereo not drawn) | -3.5% | -2.2%
CC(CCn1cccn1)NC(=O)c1cc(COc2ccc(F)cc2Cl)on1 (stereo not drawn) | -20.1% | -18.6%

Next section:
SMILES | VACV Venus inh | Vaccinia mCherry
Cc1nn(Cc2ccc(Cl)c(Cl)c2)c(C)c1NC(=O)c1cc(C2CC2)on1 | -19.5% | i
O=C(/C=C/c1c(F)cccc1Cl)Nc1ccncc1 | -8.2% | i
CCOC(=O)c1cnn(-c2ccccc2)c1NC(=O)CN1CCCCC1 | 8.0% | i
O=C1NC(=S)NC(=O)C1=Cc1c(Cl)cccc1Cl | -8.0% | -4.1%
O=C(C1=C[C@H](c2ccc3c(c2)OCO3)C[C@H](OCCCCO)O1)N1CCN(Cc2ccccc2)CC1 | -23.3% | -9.9%
Cc1ccc(-c2nc3cc(C(C)C)ccc3o2)cc1NC(=O)c1cccs1 | -14.2% | -18.9%
COc1ccc2c(CN3CCCC3)cc(=O)oc2c1 | -3.4% | i
COc1cccc(CNC(=O)N2CCN(c3ccccc3)CC2)c1 | -18.0% | i
COc1ccc2[nH]c(CN3CCN(CC=C(C)C)C(CCO)C3)c(C)c2c1 (stereo not drawn) | -5.9% | i
O=C1CC(N2CCN(c3ccc(O)cc3)CC2)C(=O)N1c1ccc2c(c1)OCO2 (stereo not drawn) | -5.4% | -26.5%
O=S(=O)(O)c1ccc(N=NNc2ccc(Br)cc2)cc1 | -5.8% | -11.7%
CN(C)/C=C/C(=O)c1ccc(-c2ccc(Cl)cc2Cl)o1 | 3.4% | -13.6%
CCC1CCCCN1C(=O)c1ccc(OC2CCN(C(=O)CCOC)CC2)cc1 (stereo not drawn) | -8.0% | -15.0%
Cc1ccnc(NS(=O)(=O)c2cccs2)c1 | -20.7% | i
CCOC(=O)Cn1c(=O)oc2cc(S(=O)(=O)NCCCc3ccccc3)ccc21 | 8.3% | i
O[C@@H](c1cc(C(F)(F)F)nc2c(C(F)(F)F)cccc12)[C@H]1CCCCN1 | ? | ?
CCOC(=O)c1cc(C(=O)c2cc(F)ccc2O)coc1=N | -6.4% | -8.5%
CCc1cccc(NC(=O)C(CC(C)C)NS(=O)(=O)c2ccc3c(c2)oc(=O)n3C)c1 (stereo not drawn) | -9.3% | -12.3%
Cc1cccc(N(C(=O)Cc2cccs2)C(C(=O)NC2CCCC2)c2ccsc2)c1 (stereo not drawn) | -7.7% | -11.7%
COc1ccc(N2C(=NC(=O)C(C)Oc3ccccc3)SC3CS(=O)(=O)CC32)cc1 (stereo not drawn) | -11.5% | -19.6%
CC(=O)/C(=N/Nc1ccccc1Cl)Sc1nnc(C(O)c2ccccc2)n1-c1ccccc1 (stereo not drawn) | -10.3% | -0.8%
O=C(Nc1cccc(Cl)c1)C1CCN(c2nc3ccccc3nc2C(F)(F)F)CC1 | -0.7% | 1.5%
COc1cccc(C(=O)NCC(=O)N/N=C/c2ccc3c(c2)OCO3)c1 | -6.1% | -9.6%
O=C(Cn1nc(C(=O)O)c2ccccc2c1=O)Nc1cc(Cl)cc(Cl)c1 | -6.6% | -5.0%

Quoted from the listing.
Vaccinia mCherry with Cn1cncc1C#Cc1ccc2cc(CCO)oc(=O)c2c1 : -5.6%
Vaccinia mCherry with COc1ccc(N2C(=NC(=O)C(C)Oc3ccccc3)SC3CS(=O)(=O)CC32)cc1 (stereo not drawn) : -19.6%
VACV Venus inh with CCOC(=O)c1[nH]c(C)c(CCC(=O)NCc2ccc(OC(C)C)cc2)c1C : -15.2%
VACV Venus inh with CS(=O)(=O)c1cnc(-c2ccccc2)nc1Oc1ccc(Cl)cc1 : -18.0%

Following part:
SMILES | VACV Venus inh | Vaccinia mCherry
COc1cc(/C=C/c2nc(C#N)c(NC(C)c3ccccc3)o2)cc(OC)c1OC (stereo not drawn) | ? | ?
O=C(O)c1cccc(S(=O)(=O)NCC2COc3ccccc3O2)c1 (stereo not drawn) | 12.4% | -17.1%
Cc1ccc(NCc2nc3ccccc3n2C)c(C)c1 | -16.7% | -6.9%
Cc1ccc([N+](=O)[O-])c(Oc2ncnc3c2oc2ccccc23)c1 | -8.2% | -12.0%
CCOc1ccccc1N1Cc2ccccc2C1 | 0.4% | 0.9%
Cc1ccc(-c2nc3c(cnn3-c3ccccc3)c(=O)n2-c2ccc(Cl)cc2)cc1 | -3.9% | -11.2%
CCCCOC(=O)CSc1nc(N)c(C#N)c(-c2ccc(OCC)cc2)c1C#N | -4.2% | -10.2%
O=S1(=O)c2ccccc2N(Cc2ccccc2Cl)c2ccccc21 | -5.5% | -5.0%
O=c1c2ccccc2nc(SCc2cn3ccsc3n2)n1-c1ccccc1 | -22.2% | nt
CSCCC(NS(=O)(=O)c1ccc2c(c1)oc(=O)n2C)C(=O)NCc1ccccc1 (stereo not drawn) | -11.9%&-9.8% | -7.5%&-0.6%
COc1ccc(-c2csc3nc(-c4ccc(C)cc4)oc(=O)c23)cc1OC | ? | -23.2%
CCCCN(C(=O)CCCSc1nc2ccccc2[nH]1)c1c(N)n(Cc2ccccc2)c(=O)[nH]c1=O | -9.5% | -14.9%
COc1ccccc1N1CCN(C(=O)COc2cc(C)cc(C)c2)CC1 | -14.4% | -4.4%
Cc1cn([C@H]2C[C@H](O)[C@@H](/C=C/C(=O)NCCc3cccs3)O2)c(=O)[nH]c1=O | -1.5% | i
COC(=O)c1sc2cccc(F)c2c1S(=O)(=O)NCc1ccc(Cl)cc1 | 10.8% | -0.9%
Cc1[nH]nc2nc(SCC(=O)NCC3CCCO3)n(-c3ccc(Br)cc3)c(=N)c12 (stereo not drawn) | ? | nt
COc1ccc2cc3cc(C(=O)NCCN4CCc5ccccc5C4)oc3nc2c1 | ? | i
Cc1sc2ncn(CC(=O)N3CCC(C(N)=O)CC3)c(=O)c2c1S(=O)(=O)N1CCOCC1 | 3.6% | -12.5%
CN(Cc1ccc(Cl)cc1)C(C(=O)NC1CCCCC1)c1ccnc2ccccc12 (stereo not drawn) | -7.1% | 6.8%
CC1(C)CC(NC2C3CC4CC(C3)CC2C4)CC(C)(C)N1 (stereo not drawn) | -5.6% | ?
CC(CCc1ccccc1)NC(=O)CNC(=O)c1cccs1 (stereo not drawn) | -11.2% | -25.2%
Cc1ccc(OCc2nc(-c3ccc(C(=O)N4CCN(c5cccc(C(F)(F)F)c5)CC4)cc3)oc2C)cc1 | -24.2% | -22.5%
CCc1noc(C)c1C(=O)NCCc1ccc(Cl)cc1 | 9.4% | 6.6%
COc1cc(=O)n2c(c1C(=O)N(C)Cc1nonc1C)CCN(C(=O)c1ccc(C)cc1C)CC2 | -4.7% | i
CCC(=O)Nc1cccc(NC(=S)NC(=O)c2ccc(C)cc2)c1 | -25.2% | -14.4%
C[C@@H]1CN([C@H](C)CO)S(=O)(=O)c2ccc(Br)cc2O[C@H]1CN(C)S(C)(=O)=O | -3.4% | i
COc1ccccc1OCc1ccc(C(=O)NC(C)(C)C)o1 | -18.6% | nt
Cc1nc(-c2ccc(F)cc2)sc1CCNC(=O)c1ccc(OC(C)C)cc1 | -16.2% | -8.1%
O=S(=O)(NC(=S)NC1CCCCC1)c1cccs1 | -5.3% | i
COc1ccc(CCNC(=O)C2(C)CCC(=O)N2Cc2ccc3c(c2)OCO3)cc1OC (stereo not drawn) | -10.6% | -14.7%
N#CC1=C(N)Nc2ncnn2C1c1ccc(F)cc1 (stereo not drawn) | 4.6% | i
c1ccc(OCCOc2ncnc3sccc23)cc1 | -10.2% | -15.3%
CCCn1c(=O)c(C(=O)NCc2ccncc2)c(O)c2ccccc21 | -6.9% | nt
Cc1sc2nc(SCC(=O)Nc3ccc(Cl)c(C(=O)O)c3)[nH]c(=O)c2c1C | -11.3% | -17.6%
C=CCn1c(-c2ccccc2OC)n[nH]c1=S | 2.5% | -13.6%

Rows were taken by chance; 0.82% or so of the library scored in one or more.
